Screens from PubChem BioAssay.
Rango dissoc inh = qHTS Assay for Inhibitors of RanGTP induced Rango (Ran-regulated importin-beta cargo) - Importin beta complex dissociation; Snurportin-1 (Homo sapiens) + GTP-binding nuclear protein Ran (Homo sapiens) + Importin …; Biochemical FRET Rango-importin beta, RanGTP-induced dissociation; Potency, µM (series often up to 46.1 µM), for inactives: at the top dose activity change, negative = inhibition; 340,000 compounds, 0.071% hits; AID 540253, 2011; active means falling FRET ratio curve, often poorly fitted, with flat reads before Ran was added; inconclusive means other falling curves, or compound fluorescence or quenching; inactive means flat or rising ratio curve;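 note: potency is the fitted concentration of half-maximal effect; % of control where 0% means no effect; nearly all actives have a fitted effect of over 45% in size; -100% = wells without RanGTP and RCC1; the record marks most hits as doubtful in a second field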
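Recombinant Rango FRET biosensor (EYFP–snurportin 1 IBB–cerulean CFP10) at 0.1 uM premixed with 0.25 uM importin beta in PBS, 1 mM DTT, 0.02% Tween-20, 0.1% BSA. Compound added 5 min; RanGTP-RCC1 (0.6 uM Ran, 2 mM GTP, 0.2 uM RCC1) then triggers release, read at 45 min.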
miR-21 FLuc = qHTS Assay for Modulators of miRNAs and/orActivators of miR-21 | HeLa miR-21 FLuc reporter, luciferase, 48 h | Potency, µM (series often up to 38.3 µM), without a hit: top-dose reporter change, positive = more light | 340,000 tested, under 10 active; active = well fitted rising curve with a large enough effect; inconclusive = small, poorly fitted or top-dose-only effect; inactive = no such curve, though single readings can be large or run the other way;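 note: % of control where 0% means no effect; miR-21 action dims this reporter so a rising signal means less miR-21 action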
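Compounds were titrated across several concentrations (up to approximately 40 uM) and incubated 48 hours with HeLa miR-21-FLuc reporter cells (miR-21 target sequence downstream of FLuc, endogenous miR-21). Readout was firefly luciferase luminescence after lytic detection reagent.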
GLA inh pH 4.5 = qHTS Assay for Inhibitors of Human alpha-Galactosidase at pH 4.5 | Alpha-galactosidase A (Homo sapiens), P06280 | purified enzyme, 4-MU-alpha-Gal fluorescence, pH 4.5 | activity change, negative = inhibition, % at 105 µM | 230,000 tested, under 10 active | AID 1467, 2008; inconclusive = small, poorly fitted or top-dose-only inhibition, or a rising curve; inactive = flat fitted curve, though single readings scatter; no compound was filed as active;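 note: 0% = full activity with enzyme and -100% = basal without enzyme; dose as in the result columns while the protocol names 77 µM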
Target sequence (P06280 whole entry, looked up): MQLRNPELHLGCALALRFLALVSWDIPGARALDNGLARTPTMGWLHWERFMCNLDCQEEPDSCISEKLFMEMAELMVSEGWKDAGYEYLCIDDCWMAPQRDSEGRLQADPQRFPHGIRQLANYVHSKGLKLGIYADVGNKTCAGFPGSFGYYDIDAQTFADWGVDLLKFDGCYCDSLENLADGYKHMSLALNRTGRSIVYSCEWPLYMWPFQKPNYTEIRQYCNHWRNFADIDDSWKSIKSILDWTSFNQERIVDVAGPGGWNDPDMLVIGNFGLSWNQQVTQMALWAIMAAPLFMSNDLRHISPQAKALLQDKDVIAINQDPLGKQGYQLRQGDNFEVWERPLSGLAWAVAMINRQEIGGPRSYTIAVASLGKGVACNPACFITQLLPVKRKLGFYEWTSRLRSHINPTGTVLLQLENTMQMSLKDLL
Rango-impB inh = qHTS Assay for Inhibitors of Rango (Ran-regulated importin-beta cargo) - Importin beta complex formation; Importin subunit beta-1 (Homo sapiens), Q14974; Rango CFP/YFP FRET sensor + importin beta, 45 min; Potency, µM (top dose mostly 92.2 µM), without a hit: at the highest dose inhibition of complex formation; 340,000 compounds, 0.031% hits; active = rising FRET ratio curve, often small or poorly fitted; inconclusive = mostly compound fluorescence or quenching in the first reads; inactive = flat curves in all reads;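 note: potency is the fitted concentration of half-maximal effect; 0% = DMSO wells and 100% = buffer wells lacking importin beta; nearly all actives have a fitted effect of over 15% in size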
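FRET biosensor Rango (snurportin 1 IBB between N-terminal EYFP and C-terminal Cerulean), 50 nM in PBS/1 mM DTT/0.02% Tween-20/0.1% BSA, preincubated 5 min RT with compound; 0.125 microM importin beta added, 45 min RT, CFP/YFP FRET ratio read.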
* = called active by the depositor; ? = inconclusive; . = no result given; & = joins results of further samples. Only part of the results is shown; rates above refer to the full screens.

SMILES | Rango dissoc inh | miR-21 FLuc | GLA inh pH 4.5 | Rango-impB inh
CCc1nc2ccc(C(=O)N(CC)CC(=O)Nc3c(F)cccc3F)cc2nc1CC | -20.5% | . | . | 1.2%
O=C(NC(=S)Nc1cccc(Cl)c1N1CCCCC1)c1ccco1 | -15.6% | 17.4% | 3.2 | 7.8%
N/C(=N\OC(=O)c1ccco1)c1ccc(Br)cc1 | 13.7% | -54.3% | -7.3 | 4.8%
O=C(NC(CO)(CO)CO)c1coc(=O)c(Br)c1 | 7.8% | 4.0% | 15.9 | -2.5%
O=C(C1=C(O)C(=O)N(CC2CCCO2)C1c1ccc(Cl)cc1)c1ccco1 (stereo unspecified) | -11.3% | 1.3% | . | -1.3%
O=C(Nc1ccccc1)NC1CC2CCC(C1)N2Cc1nnnn1Cc1ccc2c(c1)OCO2 (stereo unspecified) | 9.9% | -0.2% | -16.0 | -2.3%
C#CCn1c(=NC(=O)CN2C(=O)CCC2=O)sc2cccc(C)c21 | -5.0% | -7.2% | -6.8 | -2.2%
O=C(CC(=O)NCc1ccccc1)NCc1ccccc1 | -10.4% | 4.9% | . | 1.3%
CNC(=S)N1CCC(NC(=O)C(Cc2ccccc2)NC(C)=O)CC1 (stereo unspecified) | 6.4% | 0.6% | -1.6 | -0.4%
C=CCN(C(=O)c1ccc2c(c1)nnn2C)c1ccccc1 | 1.1% | -2.7% | . | 2.1%
COc1cc(CNn2c(C)n[nH]c2=S)cc(Cl)c1OCc1ccccc1 | 0.1% | -6.0% | -2.7 | -0.3%
Cc1cc(C)cc(-n2nnc(C(=O)NCc3ccc4c(c3)OCO4)c2N)c1 | 2.9% | -8.2% | 3.6 | -0.9%
CCOc1cc(/C=N/O)cc(Br)c1OCC | 26.6% | -2.0% | -11.6 | -2.5%
O=C(O)C1CCC(=O)N(C2CC2)C1c1ccccc1 (stereo unspecified) | 14.8% | 0.1% | -24.1 | 1.0%
CC(=O)c1ccc2noc(-c3cccc(C)c3)c2c1 | -3.1% | -40.9% | -7.2 | -0.1%
Cc1cccc(-c2cc(C(=O)Nc3ccncc3)c3ccccc3n2)c1 | 1.1% | 14.0% | . | 1.3%
Cc1ccc2[nH]c3nc(SCC#N)nnc3c2c1 | 4.3% | -3.1% | . | 1.3%
CCOc1ccccc1OCC(=O)Nc1ccc(S(=O)(=O)Nc2ncccn2)cc1 | -16.6% | -20.1% | 4.5 | 1.9%
O=C(c1ccccn1)N(Cc1ccco1)C1(C(=O)NC2CCCCC2)CCCCC1 | -4.9% | -1.5% | -2.5 | 1.2%
O=C(COC(=O)C1CC(=O)N(Cc2ccco2)C1)Nc1nc(-c2ccc(F)cc2)cs1 (stereo unspecified) | -10.2% | . | . | 5.2%
CN(C)S(=O)(=O)c1cccc(C(=O)NCCCn2ccnc2)c1 | -1.7% | -2.1% | -8.8 | -4.5%
O=C(Oc1cccc(C(=S)N2CCOCC2)c1)c1cccc([N+](=O)[O-])c1 | -5.5% | -1.6% | -4.2 | 2.6%
COC(=O)c1ccccc1NC(=O)CSc1nc(N)cc(N)n1 | 0.1% | -1.6% | 5.7 | 0.5%
COc1ccc(-n2c(COc3cccc4cccnc34)nnc2SCC(=O)O)cc1 | -7.8% | 0.0% | 0.0 | -1.6%
Cn1nc(C(=O)Nc2ccc(S(=O)(=O)N3CCCCC3)cc2)ccc1=O | 1.2% | 10.5% | 3.9 | 0.8%
COCCn1c(SCC(=O)NC2CCCCC2)nnc1-c1ccco1 | 0.9% | 5.3% | . | 0.0%
COc1cccc(NC(=O)CN(C)CC(=O)NC(C)c2ccccc2)c1 (stereo unspecified) | -21.4% | 0.9% | 1.4 | -2.0%
CC(C)n1c(=O)[nH][nH]c1=S | -3.8% | -1.6% | 0.8 | -0.5%
CCc1ccc(NS(=O)(=O)c2cc3[nH]c(=O)c(=O)[nH]c3cc2C)cc1 | 13.4% | -2.3% | . | -2.7%
Cc1cccc(NC(=O)CN2C(=O)/C(=C3\SC(=S)N(CC4CCCO4)C3=O)c3ccccc32)c1 (stereo unspecified) | -10.4% | -1.9% | . | -0.1%
O=C(NCc1cccnc1)c1cc(S(=O)(=O)N2CCOCC2)c(Cl)cc1Cl | 14.8% | . | . | 1.5%
Cc1ccc(S(=O)(=O)N2CCCc3ccccc32)cc1C | -9.8% | -0.2% | . | 0.0%
N=c1n(Cc2ccccc2)c2ccccc2n1CC(O)COc1ccccc1 (stereo unspecified) | -3.1% | 18.1% | -6.9 | 2.6%
Cn1c(=O)c2ncn(CC(=O)N=Nc3c(O)[nH]c4ccccc34)c2n(C)c1=O | . | 1.4% | -6.9 | .
COc1cc(NC(=O)c2cc3ccccc3o2)c(OC)cc1Br | 0.3% | -0.8% | 8.6 | -4.5%
CC(C)C(c1nnnn1Cc1cccs1)N1CCN(c2ccccc2)CC1 (stereo unspecified) | -11.8% | -6.9% | ? | ?
CC(Oc1cccc(Cl)c1)C(=O)Nc1ccc(N2CCOCC2)cc1N1CCOCC1 (stereo unspecified) | -6.4% | . | . | -2.4%
COc1cc(/C=C/C(=O)NC2CCCCC2)cc(OC)c1OC | -2.9% | -3.9% | . | -1.2%
O=C(CNC(=O)c1ccc(Br)cc1)NC1=NCCS1 | -9.3% | -3.5% | . | 5.7%
COc1ccccc1NC(=O)c1c([N+](=O)[O-])cnn1C | -6.9% | -3.6% | . | 0.4%
O=C(O)/C=C\C(=O)Nc1ccc(OCc2ccccc2)cc1 | 14.2% | -19.9% | -25.7 | -0.7%
c1ccc(-c2nn[nH]n2)nc1 | 11.6% | 0.3% | -1.3 | -0.4%
CCc1ccc(S(=O)(=O)Nc2c(C)nn(C)c2C)cc1 | 10.2% | 14.4% | 4.5 | 0.3%
CCN(CC(=O)NCc1ccc(F)cc1)CC(O)COCc1cccc(OC)c1 (stereo unspecified) | 13.2% | -9.7% | -10.2 | 0.5%
Cc1ccc(/C(O)=C/C(=O)C(=O)NNC(=O)C(O)(c2ccccc2)c2ccccc2)cc1 | -2.9% | -1.3% | 14.5 | -2.8%
Cc1nc(CN2CCC(c3ccccc3)CC2)cc(=O)[nH]1 | 1.3% | -0.4% | 5.2 | -0.7%
CSc1nccc(Oc2cncc(Cl)c2)n1 | 0.6% | -1.5% | 1.2 | -3.4%
COc1ccccc1NC(CC(=O)c1ccccc1)C(=O)OCC(=O)c1ccc(Br)cc1 (stereo unspecified) | 0.3% | -55.4% | -1.3 | -0.8%
CSc1ccccc1NC(=O)CN1CCCCC1 | 8.8% | -0.2% | 6.0 | 3.6%
COc1cc(/C=c2/sc3nc(-c4ccccc4)c(-c4ccccc4)n3c2=O)cc(OC)c1OC | 8.3% | -3.0% | -2.5 | -1.4%
More entries.
SMILES | Rango dissoc inh | miR-21 FLuc | GLA inh pH 4.5 | Rango-impB inh
COc1ccc(N2CCN(Cc3nc4c(c(=O)[nH]c(=O)n4C)n3CC(C)=O)CC2)cc1 | -7.0% | -2.1% | -6.3 | -4.8%
O=C(O)COCC(=O)N1CCc2c([nH]c3ccccc23)C1C(F)(F)F (stereo unspecified) | -18.5% | 0.6% | . | -0.8%
Cc1cccc(NS(=O)(=O)c2cc(C(=O)N3CCCCCC3)ccc2C)c1 | 1.2% | -3.6% | . | 0.6%
O=CNc1c(Cl)cc2c(c1Cl)Cc1cc([N+](=O)[O-])ccc1-2 | 8.7% | . | . | 0.6%
C[C@H](NC(N)=O)C(=O)OCC(=O)Nc1ccc(OC(F)F)cc1 | 1.1% | 0.9% | -5.5 | -2.7%
COc1ccc(CN(CCC(c2ccccc2)c2ccc(OC(C)C)cc2)C(=O)CCl)cc1OC (stereo unspecified) | -14.0% | ? | -2.3 | -2.4%
COc1cccc(CNC(=O)CN(c2ccc(C(C)C)cc2)S(=O)(=O)c2c(C)noc2C)c1 | -0.4% | 1.4%&2.4% | . | 3.1%
O=C(O)c1c(NC(=O)c2cccc3ccccc23)sc2c1CCC2 | 4.9% | 5.6% | -10.8 | ?
Cn1c(=O)n(/N=C/c2ccccc2)c2ccccc21 | 1.2% | -20.8% | -10.5 | -0.1%
CNc1c(NS(=O)(=O)c2ccc(Cl)s2)c(=O)oc2ccccc12 | 0.3% | -6.1% | . | 2.6%
COc1ccc(-c2c(-c3ccc(S(C)(=O)=O)cc3)sc3ccc(OC)cc23)cc1 | -1.4% | . | . | -2.4%
COc1ccc(OCC(=O)N/N=C/c2ccc(N(C)C)cc2)cc1 | 0.7% | -15.3% | -9.3 | 0.6%
O=C(NCC(=O)N(c1ccc(F)cc1)C(C(=O)NCC1CCCO1)c1ccccc1)c1ccco1 (stereo unspecified) | 10.6% | -13.0% | 2.1 | 3.5%
CCOC(=O)c1c(NC(=O)c2cc3n(n2)C(C(F)(F)F)CC(c2cccs2)N3)sc(C)c1C (stereo unspecified) | 33.0% | 2.4% | 9.3 | 2.9%
NS(=O)(=O)c1cc(C(=O)N=Nc2c(O)[nH]c3ccccc23)ccc1Cl | 3.2% | -4.6% | -3.7 | -0.7%
NC(=O)C1CCN(C(=O)c2cc3n(n2)C(C(F)(F)F)CC(c2ccco2)N3)CC1 (stereo unspecified) | 2.1% | 0.8% | 17.1 | -1.0%
Cc1nn(CC(=O)c2ccc(Cl)cc2Cl)c(C)[n+]1N | -0.2% | -2.7% | -2.1 | 2.6%
CCOC(=O)C1=C(Cc2ccc(F)cc2)C(=O)c2ccccc2C1=O | ? | ? | -5.2 | ?
O=C(/C=C/c1ccccc1)NCc1ccc2c(c1)OCO2 | -12.1% | -15.6% | . | 2.5%
CN1CCN(C(=O)CCc2nc(-c3ccc(Cl)cc3)no2)CC1 | 22.5% | -12.1% | 15.2 | 0.5%

Single records, from the list above:
COc1ccc(OCC(=O)N/N=C/c2ccc(N(C)C)cc2)cc1 in the list: Rango dissoc inh: 0.7%; miR-21 FLuc: -15.3%; GLA inh pH 4.5: -9.3; Rango-impB inh: 0.6%
CCOC(=O)C1=C(Cc2ccc(F)cc2)C(=O)c2ccccc2C1=O in the list: Rango dissoc inh: ?; miR-21 FLuc: ?; GLA inh pH 4.5: -5.2; Rango-impB inh: ?

Other results:
SMILES | Rango dissoc inh | miR-21 FLuc | GLA inh pH 4.5 | Rango-impB inh
O=C(CN1CCN(Cc2ccccc2Cl)C1=O)NC1CCCCCCC1 | 16.8% | 1.0% | -11.4 | -0.3%
CCOc1ccc(N(CC(=O)NCc2cccs2)S(=O)(=O)c2c(C)noc2C)cc1 | 7.8% | 0.8% | -1.2 | -0.4%
O=C(NCCCN1CCCC1=O)c1ccc2c(=O)n(-c3ccc(F)cc3)c(=S)[nH]c2c1 | . | 1.8% | 2.5 | .
CCOc1ccccc1N(C)C(=O)c1cn(CC)c(=O)c2cc(OC)c(OC)cc12 | -5.0% | -4.3% | . | 0.8%
Cc1nc2ccccc2n1CCOc1ccccc1 | 17.6% | 4.9% | . | -6.3%
Cc1ccc2c(CSc3nc4nc(C)cc(C)n4n3)cc(=O)oc2c1 | 2.4% | -15.6% | 2.2 | -0.3%
COc1ccc(CNC(=O)C2CCC(CNc3nc(=S)[nH]c4ccccc34)CC2)cc1 (stereo unspecified) | . | 2.8% | -0.4 | .
Cc1cccc(C)c1Nc1nnc(SCc2cc([N+](=O)[O-])cc3c2OCOC3)s1 | 1.6% | 0.3% | -3.2 | -1.1%
C=CCOC(=O)C1=C[C@@H](C2CCCCC2)C[C@@H](OCc2ccc(CO)cc2)O1 | 9.0% | 1.1% | 0.0 | 1.0%
